Cruzain inh noDet – blocks cruzain activity in detergent-free assay; purified cruzain, Z-FR-AMC fluorescence, no detergent; AID 1476; P25779; actives 2.3% (n = 200,000); Potency, µM, inactives show max response, negative = inhibition, most hits filed as inhibitors;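 note: plate controls were enzyme without inhibitor for no effect and buffer without enzyme for full effect; nearly all actives have a fitted effect of over 40% in size; top concentration of the series not given in the record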
Target sequence (P25779 123-467 limits assumed): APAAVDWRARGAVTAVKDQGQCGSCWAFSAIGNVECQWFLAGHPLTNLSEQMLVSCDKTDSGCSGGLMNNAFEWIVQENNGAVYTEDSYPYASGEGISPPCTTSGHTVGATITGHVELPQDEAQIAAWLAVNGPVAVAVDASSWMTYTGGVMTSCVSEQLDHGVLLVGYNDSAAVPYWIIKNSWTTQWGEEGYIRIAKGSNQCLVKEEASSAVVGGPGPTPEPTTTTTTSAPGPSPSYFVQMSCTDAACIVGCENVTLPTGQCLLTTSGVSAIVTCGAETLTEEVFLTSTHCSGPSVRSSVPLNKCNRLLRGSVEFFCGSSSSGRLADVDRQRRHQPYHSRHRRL
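Detergent-free condition (0.00005% Triton X-100) in acetate buffer pH 5.5 with DTT. 1.5 nM enzyme and compound were pre-mixed 15 min, then 2 uM Z-FR-AMC substrate added; reaction progress from fluorescence change between first and third reads (60 s).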
Cruzain Triton – blocks cruzain activity in presence of Triton detergent; P25779; purified cruzain, Z-FR-AMC fluorescence, 0.01% Triton; Potency, µM, for inactives: max response, negative = inhibition, actives largely listed as inhibitors; actives 0.43% (n = 200,000); AID 1478;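 note: plate controls were neutral wells for no effect and buffer without enzyme for full effect; nearly all actives have a fitted effect of over 40% in size; top concentration of the series not given in the record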
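15 min RT preincubation of 1.5 nM cruzain with compound, then 2 uM Z-FR-AMC added; kinetic AMC fluorescence, 60 s delta. Triton X-100 0.01%, pH 5.5.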
RE007 growth inh – less growth of the S. pombe RE007 Vpr strain | actives 0.21% (n = 360,000) | S. pombe RE007 Vpr strain, BacTiter-Glo ATP luminescence, 24 h; control for the full effect not named in the record | Potency, µM (doses to about 92.2 µM), for inactives: at the highest dose activity change, negative = less growth | AID 651644; active = well fitted falling curve with a large enough effect; inconclusive = small, poorly fitted or top-dose-only effect; inactive = no such curve, though single readings can be large or run the other way;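 note: % is set by controls: 0 for no effect and ±100 for the full control effect; nearly all actives have a fitted effect of over 50% in size; the assay follows cell death caused by Vpr and the record does not say whether a fall means rescue or toxicity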
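Fission yeast strain RE007, carrying one chromosomally integrated HIV-1 vpr copy, was seeded at OD 0.01 in PMG+AL medium with 23 nL pinned compound. After 24 h at 30 °C and 99% humidity, viability was read by BacTiter-Glo luminescence.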
SARS PLpro yeast – blocks SARS-CoV papain-like protease in a yeast assay. S. cerevisiae expressing SARS-CoV PLpro, growth rescue; control for the full effect not named in the record. Potency, µM (titrated, usually from 32.9 µM), inactives show at the top dose activity, positive = growth rescue. actives 0.19% (n = 330,000); active means well fitted rising curve with a large enough effect; inconclusive means small, poorly fitted or top-dose-only effect; inactive means no such curve, though single readings can be large or run the other way; note: 0% is about no effect; nearly all actives have a fitted effect of over 55% in size; growth read by luminescence after 48 h
NS1 inh – influenza NS1 inhibition; Potency, µM (top dose mostly 46.1 µM), inactives show at the highest dose activity, positive = more growth; actives 0.4% (n = 270,000); S. cerevisiae slowed by influenza A NS1, growth recovery by OD600; active means well fitted rising curve with a large enough effect; inconclusive means small, poorly fitted or top-dose-only effect; inactive means no such curve, though single readings can be large or run the other way; note: nearly all actives have a fitted effect of over 50% in size
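Growth recovery, yeast-based: influenza A NS1 expressed in S. cerevisiae causes slow growth, and suppressors are detected by OD600. The parent strain without NS1 is used as positive control.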
MARV entry inh – blocks Marburg virus binding to or entry into cells | Marburg virus pseudotyped entry inhibition, cell reporter; control for the full effect not named in the record; about a third of the inactives were read at about 46 µM | actives 1.8% (n = 300,000) | AID 540276 | Potency, µM (titrated, usually from 37.8 µM), for the others: at the top dose activity change, negative = inhibition, usual class: inhibitors; active = well fitted inhibition curve with a large enough effect; inconclusive = small, poorly fitted or top-dose-only effect, or effect the other way; inactive = flat fitted curve, though single readings scatter; tested in HEK293 cells; about a fifth of its hits are not listed in these tables; note: % is set by controls: 0 for no effect and ±100 for the full control effect; luciferase read-out
Lassa entry inh – Lassa virus entry inhibition; actives 1.2% (n = 300,000); Potency, µM (doses to about 37.9 µM), for inactives: at the highest dose activity change, negative = inhibition, usual class: inhibitors; AID 540256; Lassa virus pseudotype entry inhibition, cell reporter; control for the full effect not named in the record; active means well fitted inhibition curve with a large enough effect; inconclusive means small, poorly fitted or top-dose-only effect, or effect the other way; inactive means flat fitted curve, though single readings scatter; tested in HEK293 cells; note: % is set by controls: 0 for no effect and ±100 for the full control effect; nearly all actives have a fitted effect of over 50% in size; luciferase read-out
StopGo reporter – FMDV 2A StopGo reporter, luciferase signal. AID 1159524. human cells with a luciferase reporter of 2A StopGo recoding; control for the full effect not named in the record. actives 1.2% (n = 410,000). Potency, µM (series often up to 57.9 µM), inactives show at the highest dose signal change, negative = less light; active = well fitted falling curve with a large enough effect; inconclusive = small, poorly fitted or top-dose-only effect; inactive = no such curve, though single readings can be large or run the other way; tested in HEK293T cells; note: % is set by controls: 0 for no effect and ±100 for the full control effect; nearly all actives have a fitted effect of over 45% in size; luciferase light after 4 h
* = called active by the depositor; ? = inconclusive; . = no result given; & = joins results of further samples; [ ] = remark or other dose. Unless noted, calls come from the whole dose curve; as a rule, active = well fitted curve in the direction sought with a large enough effect; inconclusive = small, poorly fitted or top-dose-only effect, or another doubt; inactive = no such curve, though single readings can be large; an effect the other way counts as inactive or inconclusive. Potency is the fitted concentration of half-maximal effect.

SMILES	Cruzain inh noDet	Cruzain Triton	RE007 growth inh	SARS PLpro yeast	NS1 inh	MARV entry inh	Lassa entry inh	StopGo reporter
CC1(C)SC2c3ccccc3C(=O)N2C1C(=O)O (stereo not given)	.	.	-11%	.	.	16%	10%[46.1 µM]	-21%
CCC(=O)N(C)C(c1ccccc1Cl)c1nnnn1-c1c(C)cccc1C (stereo not given)	?	1.1%	-4%	5%	-2%	-22%	-1%	-13%
CC1CN(c2ccc([N+](=O)[O-])cn2)CC(C)O1 (stereo not given)	.	.	26%	0%	0%	9%[46.1 µM]	8%	-8%
Cc1ccc(C(=O)OCC(=O)N2c3ccccc3NC(=O)C2(C)C)cc1S(=O)(=O)N1CCCCC1	.	.	-14%	0%	.	?	0%[46.1 µM]	15%
Cc1cc(C)nc(NC(=O)/C=C/c2ccc(Cl)cc2)n1	.	.	-15%	-2%	-3%	-4%[46.1 µM]	9%[46.1 µM]	-1%
N#Cc1c(NC(=O)CSc2n[nH]c(N)n2)oc(-c2ccccc2)c1-c1ccccc1	-1%	-4.4%	24%	0%	24%	?	-10%	0%
Cc1ccc2c(Cl)c(C(=O)NCc3cccnc3)sc2c1	-1%	-2.9%	-18%	-5%	-46%	-26%	-1%	7%
COc1ccc(CC(=O)NNC(=O)CSc2nnc(C)n2-c2ccccc2)cc1	-1%	0.1%	-1%	0%	2%	-10%	17%	-6%
Cc1ccc2c(CN3CC=C(c4ccccc4)CC3)cc(=O)oc2c1C	-2%	-8.4%	-21%	4%	-9%	-25%	2%	-12%
Cc1ccccc1C(=O)Nc1ccccc1-n1cccc1	1%	0.0%	0%	4%	-16%	-1%	4%	5%
CCCCn1cc(S(=O)(=O)c2cc(C)ccc2C)c(=O)c2cc(F)c(F)cc21	-11%	-1.4%	.	.	.	0%[46.1 µM]	18%[46.1 µM]	21%
CCCN(CCC)CCNC(=O)c1cc(Sc2ccc(Cl)cc2)nc2ccccc12	4%	0.2%	.	.	.	.	?	-25%
Cc1ccc(-c2noc(CCC(=O)Nc3ccccc3N3CCN(C)CC3)n2)cc1	-1%	5.1%	3%	18%	10%	?	-22%	0%
O=C(Cc1ccccc1)c1ccc(O)cc1O	.	.	-3%	.	.	?	-4%	18%
COc1ccc(OC)c(/C=N\NC(=O)c2ccc(=O)n(C)c2)c1	-4%	-7.0%	4%	-1%	-2%	0%	3%	-3%
CCCCCc1cc(=O)oc2c(C(CCN3CCCC3)c3ccc(N(C)C)cc3)c(OC)cc(OC)c12 (stereo not given)	.	.	8%	0%	-1%	.	.	-8%
Cc1ccc(-n2c(=O)c3c4c(sc3n(Cc3cccc(Cl)c3)c2=O)CCC4)cc1C	-2%	-1.7%	.	.	.	-8%[46.1 µM]	16%[46.1 µM]	-7%
COc1cc(C(=O)NCCCOC(C)C)ccc1OC1CCN(C(C)=O)CC1	.	.	0%	-8%	6%	.	.	13%
COc1ccc(NC(=O)CC2(CC(=O)N3CCOCC3)CCCC2)cc1Cl	.	.	-24%	2%	.	11%	-17%	-8%
O=C(NCc1cccs1)c1cccn2c(=O)c3sccc3nc12	.	.	0%	0%	.	6%[46.1 µM]	25%[46.1 µM]	-5%
Cc1ccc(-c2cc(-c3ccccc3)c(C#N)c(N)n2)o1	?	-29%	?	-28%	-35%	-8%	?	-3%
COc1ccc(NS(=O)(=O)c2cc(OC)ccc2OC)cc1	.	.	-21%	.	.	-22%	-1%	70%[activator]
CCC(C)N1C(=O)N(C)C2NC(=O)NC21 (stereo not given)	.	.	-13%	1%	0%	-2%	11%	-16%
Cc1cccc(-n2c(C)nc3ccc(Cl)cc3c2=O)c1	.	.	-7%	-8%	1%	27%	5%	-10%
CCOC(=O)C1(CCCc2ccccc2)CCN(Cc2cnn(C)c2)CC1	.	.	4%	-1%	0%	?	-10%[46.1 µM]	-5%

New compounds follow.
SMILES	Cruzain inh noDet	Cruzain Triton	RE007 growth inh	SARS PLpro yeast	NS1 inh	MARV entry inh	Lassa entry inh	StopGo reporter
CCOC(=O)c1cc(OC(=O)c2ccccc2OC)n(-c2ccccc2)n1	9%&10%	-3.8%&0.3%	10%	28%	21%	-13%[46.1 µM]	28%[46.1 µM]	-6%&0%
O=C(Cn1cnc2c(nnn2Cc2ccc(Cl)cc2)c1=O)N1CCCc2ccccc21	15%	-5.3%	-13%	5%	1%	28%	12%	.
CCOc1ccc(NC(=O)CSc2oc(-c3cccs3)nc2S(=O)(=O)c2ccc(Cl)cc2)cc1	-11%	-7.2%	.	.	.	0%[46.1 µM]	-1%[46.1 µM]	2%
Cc1c(C(=O)NC(=S)Nc2ccc(NC(=O)c3cccs3)cc2)oc2ccccc12	13µM*	-1.6%	0%	-38%	-31%	3%	.	-14%
CN(Cc1cccc(C(F)(F)F)c1)C(=O)C1CCC(=O)N(CC2CCCCC2)C1 (stereo not given)	.	.	-4%	-3%	-9%	.	.	-22%
Cc1cccc(C(=O)NNC(=O)c2ccc(F)cc2)c1	2%	-3.5%	-14%	7%	-2%	20%	12%	29%
Cc1cc(C)nc(SCC(=O)c2ccc(O)cc2O)n1	7%	-3.2%	-7%	3%	-16%	.	.	-14%
CC1Cc2ccccc2N1S(=O)(=O)c1cccc(C(=O)NCc2ccco2)c1 (stereo not given)	.	.	0%	-15%	.	?	10µM*	0%
CCN(CC)CCCNC(=O)c1ccc(CS(=O)(=O)c2ccccc2OC)o1	.	.	-4%	13%	2%	.	.	15%
COc1ccc(S(=O)(=O)N2CCCCC2)cc1	5%	-2.0%	8%	3%	0%	-14%	2%	18%
O=C(Oc1ccc2ccc(=O)oc2c1)N1CCOCC1	-12%	3.3%	2%	4%	7%	29%	23%	8%
C(=N\N(c1ccccc1)c1ccccc1)/c1ccccn1	.	.	?	-26%	-60%	?	?	-12%
O=C(CN1CCN(c2ccccc2O)CC1)NC(=O)NC1CCCC1	.	.	23%	0%	.	-10%[46.1 µM]	?	-22%
CCOC(=O)Cc1nn(Cc2nc(-c3ccc(C#N)cc3)cs2)c(=O)c2ccccc12	.	.	4%	-1%	0%	?	?	18µM*
COc1ccc(NS(=O)(=O)c2cccc(NC(=O)NC3CCCCC3)c2)cc1	12%	-3.9%	1%	-6%	-21%	?	2µM*	-17%
COc1ccc(C(=O)Nc2sc(C)c(-c3ccccc3)c2C#N)cc1OC	?	-4.0%	-6%	-6%	5%	22%[46.1 µM]	-9%	?
CCOC(=O)C1(CC2CC2)CCN(Cc2ccc3cccc(F)c3n2)CC1	.	.	-12%	0%	1%	.	.	-16%
CCOC(=O)C1(Cc2cccc(OC)c2)CCN(C(C)COC)CC1 (stereo not given)	.	.	-10%	0%	1%	.	.	-24%
COc1ccc(NC(=O)Cn2ccc(C(F)(F)F)n2)cc1S(=O)(=O)N1CCOCC1	.	.	-6%	3%	.	-2%[46.1 µM]	-15%[46.1 µM]	-2%
COc1ccccc1Nc1nc(Cl)nc(NC(C)(C)C)n1	.	.	23%	-14%	-6%	?	-22%	?
COc1cccc(-c2noc(C3CCCN(S(=O)(=O)c4cccc(Cl)c4C)C3)n2)c1 (stereo not given)	-6%	-3.4%	-6%	1%	5%	?	2%	-22%
Cc1ccc(C)[n+](CC(=O)c2ccc(-c3ccccc3)cc2)c1	.	.	?	-1%	1%	?	-26%	?
NC(=O)c1oc2ccccc2c1NC(=O)c1ccc(F)cc1	-1%	-3.5%	-9%	-2%	-24%	.	.	-25%
CCN(CC)c1ccc(N=Nc2nn(C)c(C)c2[N+](=O)[O-])cc1	11%	-8.9%	-16%	9%	5%	?	?	-8%
CCCCn1c(SCC(=O)c2ccc(OC)c(OC)c2)nc2cc(S(N)(=O)=O)ccc21	?	6.4%	-10%	3%	6%	5%	7%	-22%

(further entries)
SMILES	Cruzain inh noDet	Cruzain Triton	RE007 growth inh	SARS PLpro yeast	NS1 inh	MARV entry inh	Lassa entry inh	StopGo reporter
CN(C)CCSc1nnc2sc3ccccc3n12	-9%	3.4%	-9%	-1%	-1%	-8%	6%	13%
Cc1cc(C)cc(-n2c(SCC(=O)NCc3ccc(F)cc3)nc3c([nH]c4ccccc43)c2=O)c1	5%	-0.9%	.	.	.	.	16%[46.1 µM]	?
COCC(=O)N1CCc2ccc(NC(=O)c3ccc(C(F)(F)F)cc3)cc2C1	.	.	-7%	.	.	?	-13%[46.1 µM]	-22%
CCc1ccc(C(=O)CSC2=C(C#N)C(c3ccco3)C(C(C)=O)=C(C)N2)cc1 (stereo not given)	-9%	-12%	.	-16%	?	3%	.	.
CCn1c(O)c(C=NCc2cccs2)c(=O)n(CC)c1=S	-25%	-5.8%	4%	-10%	1%	?	-12%	0%
O=C(NCc1n[nH]c(=S)n1-c1cccc(Cl)c1)c1ccc(S(=O)(=O)N2CCCC2)cc1	1%	5.5%	13%	8%	-9%	11%	19%	-1%
Cc1ccc(C(C(=O)NCc2ccco2)N(C(=O)Cc2cccs2)c2cccnc2)cc1 (stereo not given)	.	.	10%	0%	3%	?	-11%	5%
COc1ccccc1NS(=O)(=O)c1cccc(C(=O)N2CCCCCC2)c1	.	.	9%	-3%	.	-1%[46.1 µM]	?	22%
CCOc1ccc(-c2ccc(SCC)nn2)cc1	.	.	-8%	-1%	-48%	?	?	-50%
CC(=O)c1ccc(NC(=O)C2CCCN(S(=O)(=O)c3ccc(Br)s3)C2)cc1 (stereo not given)	2%	0.4%	.	.	.	4%[46.1 µM]	4%[46.1 µM]	-8%
O=S(=O)(c1ccccc1)N1CCN(Cc2ccccc2)c2ccccc21	.	.	8%	.	.	?	-19%[46.1 µM]	-8%
Cc1ccc(NC(=S)c2nc3ccccc3s2)cc1	-6%	0.0%	-6%	-3%	-8%	?	?	?
CCOc1ccccc1NC(=O)c1cc2c(=O)[nH]c3ccccc3c2s1	7%	-1.1%	.	.	.	6%[46.1 µM]	11%[46.1 µM]	-5%
CCN(C(=O)CN1C(=O)COc2ccc(S(=O)(=O)N3CCOCC3)cc21)c1cccc(C)c1	-10%	-1.4%	.	.	.	.	7%[46.1 µM]	2%
Cc1ccc(CCP(=O)(O)CN2CCOCC2)cn1	1%	8.6%	6%	1%	2%	5%	5%	.

Screens (PubChem)
